# Source: PubChem
# Vaccinia inh – blocks a specific stage of Vaccinia orthopoxvirus infection, primary screen, cell-based, single point | actives 0.01% (n = 89,000) | AID 1053133, 2014 | activity change (mCherry), % (no concentration beside the values) | Vaccinia-infected cells, mCherry/Venus stage reporter fluorescence; hits give low values; some inactives read as strong as hits;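 active = mCherry past -33% and 40 or more points under the early reporter, replicates agreeing; inconclusive = past -33% without that gap or agreement; tested in A549 cells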;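 note: scaled between vehicle wells and reference inhibitor wells; 23 nL library stock went into each well; one replicate is shown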
# Vaccinia inh Venus – also measured in Vaccinia inh; calls as there; activity change (Venus), %; measured here: Venus reporter, other viral stage;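 negative = less Venus signal; first of two replicates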
# * = called active by the depositor; ? = inconclusive; · = not tested or not shown; & = joins results of further samples. This is a subset; count on the stated rates, not on these rows.
# Each structure is followed by: Vaccinia inh, Vaccinia inh Venus
[1] O=C(N[C@H]1CC[C@H](CCNS(=O)(=O)c2ccc(F)cc2)O[C@H]1CO)c1cccc(F)c1
    -1, -1
[2] CCC(=O)N1C[C@H](C)[C@H](OC)CN(C)C(=O)c2ccc(NC(=O)Nc3ccccc3)cc2OC[C@H]1C
    -17, -13
[3] CCS(=O)(=O)NCC[C@@H]1CC[C@@H](NC(=O)C2CCOCC2)[C@@H](CO)O1
    9, 9
[4] C[C@@H]1CCCCO[C@H](CN(C)S(=O)(=O)c2ccc(Cl)cc2)[C@H](C)CN([C@@H](C)CO)C(=O)c2cc(NC(=O)Nc3cccc4ccccc34)ccc2O1
    10, 9
[5] CCNC(=O)C[C@H]1CC[C@H]2[C@@H](COc3ccc(NC(=O)c4ccc(C#N)cc4)cc3C(=O)N2C)O1
    15, 10
[6] COc1ccc(CN(C)C[C@@H]2OCCCC[C@@H](C)Oc3ccc(NC(=O)Nc4c(C)noc4C)cc3C(=O)N([C@@H](C)CO)C[C@H]2C)cc1
    29, 10
[7] O=C(C[C@@H]1CC[C@H]2[C@@H](COC[C@H](O)CN2S(=O)(=O)c2cccc(F)c2)O1)Nc1ccc(-c2ccccc2)cc1
    ?, ·
[8] C[C@@H]1CN([C@H](C)CO)C(=O)c2cc(NS(=O)(=O)c3ccc(Cl)cc3)ccc2O[C@H]1CN(C)S(=O)(=O)c1ccc(F)cc1
    13, 6
[9] O=C(C[C@H]1CC[C@H](NC(=O)Nc2ccccc2F)[C@H](CO)O1)NCc1ccccc1
    9, 11
[10] Cc1noc(C)c1S(=O)(=O)Nc1ccc2c(c1)C(=O)N([C@H](C)CO)C[C@H](C)[C@H](CN(C)C(=O)CCC(F)(F)F)OCCCC[C@@H](C)O2
    3, 5
[11] Cc1ccc(S(=O)(=O)N(C)C[C@H]2Oc3c(NC(=O)NC4CCCCC4)cccc3C(=O)N([C@H](C)CO)C[C@@H]2C)cc1
    -24, -10
[12] CN(C)CC(=O)Nc1ccc2c(c1)[C@@H]1C[C@H](CC(=O)N3CCc4ccccc4C3)O[C@H](CO)[C@@H]1O2
    -7, -4
[13] CO[C@@H]1CN(C)C(=O)c2ccc(NC(=O)c3ccccc3)cc2OC[C@H](C)N(C)C[C@H]1C
    2, -3
[14] CCC(=O)N1[C@H](C(=O)NCCCN(C)C)[C@@H](CO)[C@@H]2Cn3c(ccc(-c4ccccc4OC)c3=O)[C@@H]21
    -3, 4
[15] O=C(Nc1cccc(F)c1)N1C[C@@H]2[C@H](c3ccccc31)[C@@H](CO)N2C(=O)Cc1ccccc1
    -1, 5
[16] O=C(NCCN1CCCCC1)[C@H]1[C@H](CO)[C@H]2Cn3c(cccc3=O)[C@@H]1N2C(=O)C1CCCCC1
    10, 7
[17] COc1ccccc1S(=O)(=O)N[C@@H]1CC[C@H](CC(=O)NCc2cccc(F)c2)O[C@H]1CO
    2, -2
[18] COc1ccc(S(=O)(=O)N(C)C[C@@H]2Oc3ncc(Br)cc3C(=O)N([C@H](C)CO)C[C@@H]2C)cc1
    4&6, -1&2
[19] O=C(C[C@H]1C[C@@H]2c3cc(NC(=O)CC4CC4)ccc3O[C@@H]2[C@H](CO)O1)NCc1ccccn1
    9, 14
[20] COCC(=O)N1C[C@@H](C)[C@H](OC)CN(C)C(=O)c2ccc(NC(=O)c3ccccc3)cc2OC[C@@H]1C
    -5, -6
[21] COCC#Cc1ccc2c(c1)O[C@H](CN(C)Cc1ccc3c(c1)OCO3)[C@@H](C)CN([C@H](C)CO)S2(=O)=O
    ?, ·
[22] CO[C@H]1CN(C)C(=O)c2cc(NS(=O)(=O)c3ccc(Cl)cc3)ccc2OC[C@@H](C)NC[C@@H]1C
    5, 9
[23] Cc1ccccc1-c1cnc2c(c1)C(=O)N([C@H](C)CO)C[C@@H](C)[C@H](CN(C)C(=O)CN(C)C)O2
    17, 14
[24] C[C@H]1CN([C@@H](C)CO)C(=O)CCCn2cc(nn2)CO[C@@H]1CN(C)Cc1ccc(-c2ccccc2)cc1
    -21, -11
[25] O=C(NCC[C@H]1CC[C@@H](NS(=O)(=O)c2cccc(F)c2)[C@H](CO)O1)C1CCC1
    11, 9
[26] COCC(=O)N[C@@H]1CC[C@H](CC(=O)NCc2ccc(Cl)cc2)O[C@@H]1CO
    1, 4
[27] O=C(NC1CCCC1)N1CCCCN2[C@H](CO)[C@@H](c3ccc(-c4cncnc4)cc3)[C@H]2C1
    1, -4
[28] Cc1noc(C)c1S(=O)(=O)N(C)C[C@H]1OCCCC[C@@H](C)Oc2ccc(NC(=O)Cc3ccccc3)cc2C(=O)N([C@H](C)CO)C[C@@H]1C
    6, 0
[29] C[C@@H]1CN([C@@H](C)CO)C(=O)c2cc(NC(=O)CCC(F)(F)F)ccc2O[C@@H](C)CCCCO[C@@H]1CN(C)S(=O)(=O)c1cccs1
    -20, -12
[30] O=C(NCC[C@@H]1CC[C@H](NC(=O)C2CC2)[C@H](CO)O1)Nc1ccc(C(F)(F)F)cc1
    -6, -5
[31] CO[C@@H]1CN(C)C(=O)c2ccc(NC(C)=O)cc2OC[C@H](C)N(C(=O)Cc2ccccn2)C[C@H]1C
    1, 6
[32] CCCC(=O)Nc1ccc2c(c1)OC[C@@H](C)N(Cc1ccccc1OC)C[C@@H](C)[C@H](OC)CN(C)C2=O
    -1, 10
[33] CC(C)CC#Cc1ccc2c(c1)O[C@@H](CN(C)CC1CC1)[C@@H](C)CN([C@@H](C)CO)S2(=O)=O
    ?, ·
[34] CN1CCN(C(=O)C[C@@H]2CC[C@H]3[C@@H](COC[C@@H](O)CN3C(=O)Nc3ccc(F)cc3)O2)CC1
    15, 5
[35] CC(C)C#Cc1cnc2c(c1)C(=O)N([C@H](C)CO)C[C@H](C)[C@H](CN(C)C(=O)c1ccccc1)O2
    -5, -2
[36] CO[C@@H]1CN(C)C(=O)c2ccc(NS(C)(=O)=O)cc2OC[C@@H](C)N(C)C[C@@H]1C
    -2, 0
[37] CCNC(=O)C[C@H]1CC[C@@H](NC(=O)C2CC2)[C@@H](CO)O1
    -1, 2
[38] O=C(c1cnccn1)N1CC[C@@H]2[C@H]1c1cc(C#Cc3cccnc3)ccc1N[C@@H]2CO
    9, 11
[39] CN(C)CC#Cc1ccc([C@@H]2[C@H](C#N)N[C@@H]2CO)cc1
    10, -3
[40] CO[C@@H]1CN(C)C(=O)c2ccc(NS(=O)(=O)CC(F)(F)F)cc2OC[C@@H](C)N(Cc2ccccn2)C[C@H]1C
    4, -4
[41] O=S(=O)(N[C@H]1CC[C@H](CCNS(=O)(=O)c2ccccc2Cl)O[C@H]1CO)c1ccccc1
    2, 13
[42] CCC(=O)N(C)C[C@@H]1Oc2cc(C#Cc3ccccn3)ccc2S(=O)(=O)N([C@H](C)CO)C[C@@H]1C
    4, 0
[43] COc1ccc(CN(C)C[C@@H]2Oc3ccc(NC(=O)CCC(F)(F)F)cc3C(=O)N([C@@H](C)CO)C[C@@H]2C)cc1
    14, 2
[44] CCN1[C@@H]2c3ccc(/C=C/c4ccccc4)c(=O)n3C[C@H]1[C@H](CO)[C@H]2C(=O)NCc1ccccn1
    8, 3
[45] CC=Cc1ccc2n(c1=O)C[C@H]1[C@H](CO)[C@@H](C(=O)NCCC)N(CC3CCCC3)[C@@H]21 (mixture of isomers)
    -4, 2
[46] C[C@H]1CN([C@@H](C)CO)C(=O)c2cc(NC(=O)Nc3ccc(F)cc3)ccc2O[C@H]1CN(C)S(=O)(=O)c1ccc(F)cc1
    -6, -2
[47] CO[C@H]1CC[C@H]2CCN(C)C(=O)C[C@@H](c3ccccc3)CN(C)C(=O)c3cc(C#N)ccc3OC[C@H]1O2
    23, 14
[48] O=C(CN1CCOCC1)N1CCCCN2[C@H](C1)[C@@H](c1ccc(-c3ccccc3F)cc1)[C@@H]2CO
    7, -4
[49] CN(C)c1ccc2c(c1)[C@H]1C[C@@H](CC(=O)NCc3ccccc3)O[C@@H](CO)[C@H]1O2
    -2, -1
[50] CC(=O)N(C)C[C@@H]1Oc2cc(C#C[C@@H](C)O)ccc2S(=O)(=O)N([C@@H](C)CO)C[C@@H]1C
    8, 17
[51] O=C(Nc1ccc2c(c1)[C@@H]1C[C@H](CC(=O)N3CCCCC3)O[C@H](CO)[C@@H]1O2)C1CCC1
    -5, -6
[52] Cc1noc(C)c1S(=O)(=O)Nc1ccc2c(c1)C(=O)N([C@@H](C)CO)C[C@@H](C)[C@@H](CN(C)Cc1ccccc1)OCCCC[C@@H](C)O2
    -31, -25
[53] CC(=O)Nc1ccc2c(c1)C(=O)N(C)[C@@H]1CC[C@@H](CC(=O)NCc3ccccc3Cl)O[C@@H]1CO2
    0, 1
[54] C=CC[C@@]1(C(=O)NCC(O)CO)N=C(c2ccc(OCCCO)cc2)O[C@@H]1c1ccccc1 (stereo partly drawn)
    5, 3
[55] CO[C@@H]1CN(C)C(=O)c2cc(NS(=O)(=O)c3ccccc3Cl)ccc2OC[C@@H](C)NC[C@@H]1C
    3, 0
[56] O=C(Cc1cccnc1)N1CCCCN2[C@H](C1)[C@@H](c1ccc(C#CC3CCCC3)cc1)[C@@H]2CO
    ?, ·
[57] C[C@@H]1CN([C@H](C)CO)C(=O)Cc2cc(NC(=O)CCN3CCOCC3)ccc2O[C@H]1CN(C)Cc1ccc(C(F)(F)F)cc1
    -13, -10
[58] COCCNC(=O)C[C@@H]1C[C@@H]2c3cc(NC(=O)Nc4ccccc4)ccc3O[C@@H]2[C@H](CO)O1
    15, 7
[59] O=C(Cc1ccccn1)N[C@H]1CC[C@H](CCn2cc(-c3ccccc3)nn2)O[C@H]1CO
    0, 7
[60] COc1ccc(-c2cnc3c(c2)C(=O)N([C@@H](C)CO)C[C@@H](C)[C@H](CN(C)C(=O)NC2CCCC2)O3)cc1
    10, 1

# (further entries)
# Each structure is followed by: Vaccinia inh, Vaccinia inh Venus
[61] O=C(C[C@H]1CC[C@H](NS(=O)(=O)c2ccc(F)cc2)[C@@H](CO)O1)NCc1ccncn1
    4, 6
[62] COc1ccc(NC(=O)Nc2ccc3c(c2)C(=O)N([C@H](C)CO)C[C@H](C)[C@H](CN(C)Cc2ccc(C(=O)O)cc2)OCCCC[C@@H](C)O3)cc1
    22, 20
[63] C[C@H]1CN([C@@H](C)CO)C(=O)c2cc(N(C)C)ccc2O[C@@H]1CN(C)Cc1ccc(Oc2ccccc2)cc1
    -3, -1
[64] Cc1noc(C)c1S(=O)(=O)Nc1ccc2c(c1)C(=O)N([C@H](C)CO)C[C@H](C)[C@@H](CN(C)C)OCCCC[C@@H](C)O2
    12, 2
[65] COc1cccc(C#Cc2cnc3c(c2)C(=O)N([C@H](C)CO)C[C@H](C)[C@H](CN(C)C(=O)C2CCOCC2)O3)c1
    8, 10
[66] Cc1ccc(S(=O)(=O)N[C@@H]2CC[C@H](CC(=O)N3CCN(c4ccccc4)CC3)O[C@@H]2CO)cc1
    -10, -5
[67] COc1cccc(S(=O)(=O)N[C@@H]2CC[C@H](CCn3cc(-c4ccccc4OC)nn3)O[C@H]2CO)c1
    -9, -6
[68] CO[C@H]1CN(C)C(=O)c2cc(NC(C)=O)ccc2OC[C@H](C)N(S(C)(=O)=O)C[C@H]1C
    15, 10
[69] C[C@H](NC(=O)[C@H]1[C@H](CO)[C@H]2Cn3c(ccc(-c4cccnc4)c3=O)[C@@H]1N2C)c1ccccc1
    7, 2
[70] COc1ccc(C#Cc2ccc([C@H]3[C@H](CO)N4CCCCN(C(=O)c5ccncc5)C[C@@H]34)cc2)cc1
    ?, ·
[71] O=C(c1ccc2c(c1)OCO2)N1CC(=O)N2[C@@H](CO)[C@H](c3ccc(C#Cc4ccccc4)cc3)[C@@H]2C1
    -14, -16
[72] C[C@H]1CN([C@@H](C)CO)C(=O)c2cccc(NC(=O)Nc3cccc4ccccc34)c2O[C@@H]1CN(C)C(=O)Nc1ccc(C(F)(F)F)cc1
    -12, -10
[73] C[C@@H]1CCCCO[C@@H](CN(C)C(=O)CCC(F)(F)F)[C@@H](C)CN([C@@H](C)CO)C(=O)c2cc(NS(=O)(=O)c3ccccc3)ccc2O1
    12, 3
[74] CCCC(=O)Nc1ccc2c(c1)C(=O)N(C)C[C@@H](OC)[C@@H](C)CN(CC1CCCC1)[C@H](C)CO2
    -5, 4
[75] Cc1cccc(S(=O)(=O)N2C[C@H](O)COC[C@@H]3O[C@@H](CC(=O)NCCCN4CCOCC4)CC[C@H]32)c1
    12, 4
[76] O=C(C[C@H]1CC[C@H]2[C@@H](COC[C@H](O)CN2Cc2ccccc2)O1)NCCCN1CCOCC1
    7, 3
[77] CC(=O)N(C)C[C@@H]1[C@@H](c2ccc(-c3ccc(F)cc3)cc2)[C@H](CO)N1C(C)=O
    -9, -3
[78] O=C(Cc1ccccn1)NCC[C@@H]1CC[C@@H](NS(=O)(=O)c2ccccc2)[C@H](CO)O1
    16, 12
[79] Cn1cnc(S(=O)(=O)N[C@@H]2C=C[C@H](CC(=O)Nc3ccc(-c4ccccc4)cc3)O[C@@H]2CO)c1
    1, 5
[80] CC(C)NC(=O)N(C)C[C@H]1Oc2ccc(NS(=O)(=O)c3ccccc3)cc2C(=O)N([C@@H](C)CO)C[C@H]1C
    12, 12
